# High-throughput results deposited in PubChem by National Center for Advancing Translational Sciences (NCATS).
# SARS PLpro yeast: blocks SARS-CoV papain-like protease in a yeast assay. S. cerevisiae expressing SARS-CoV PLpro, growth rescue; control for the full effect not named in the record. Potency, µM (top dose mostly 32.9 µM), for the others: at the highest dose activity, positive = growth rescue. actives 0.19% (n = 330,000). AID 485353; also: 0% is about no effect; nearly all actives have a fitted effect of over 55% in size; growth read by luminescence after 48 h
# Cruzain inh noDet: blocks cruzain activity in detergent-free assay; P25779; purified cruzain, Z-FR-AMC fluorescence, no detergent; Potency, µM, for inactives: max response, negative = inhibition, hits mostly inhibitors; actives 2.3% (n = 200,000); active = well fitted curve in the direction sought with a large enough effect; inconclusive = small, poorly fitted or top-dose-only effect, or another doubt; inactive = no such curve, though single readings can be large; an effect the other way counts as inactive or inconclusive;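 also: plate controls were enzyme without inhibitor for no effect and buffer without enzyme for full effect; nearly all actives have a fitted effect of over 40% in size; top concentration of the series not given in the record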
# Target sequence (P25779 123-467 limits assumed): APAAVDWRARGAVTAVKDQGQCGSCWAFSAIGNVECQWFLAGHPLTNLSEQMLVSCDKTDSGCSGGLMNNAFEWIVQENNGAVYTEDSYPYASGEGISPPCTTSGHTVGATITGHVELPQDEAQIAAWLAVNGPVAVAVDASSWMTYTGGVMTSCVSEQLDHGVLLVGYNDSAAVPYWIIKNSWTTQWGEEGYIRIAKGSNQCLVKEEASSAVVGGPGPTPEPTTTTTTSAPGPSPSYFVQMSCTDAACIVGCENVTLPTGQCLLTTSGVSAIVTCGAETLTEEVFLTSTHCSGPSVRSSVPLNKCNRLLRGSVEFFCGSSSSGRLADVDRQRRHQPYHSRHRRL
#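 Detergent-free condition (0.00005% Triton X-100) in acetate buffer pH 5.5 with DTT. 1.5 nM enzyme and compound were pre-mixed 15 min, then 2 uM Z-FR-AMC substrate added; reaction progress from fluorescence change between first and third reads (60 s).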
# MARV entry inh: inhibitors of Marburg virus binding or cell entry. Marburg virus pseudotyped entry inhibition, cell reporter; control for the full effect not named in the record; about a third of the inactives were read at about 46 µM. AID 540276. Potency, µM (top dose mostly 37.8 µM), inactives show at the top dose activity change, negative = inhibition, actives largely listed as inhibitors. actives 1.8% (n = 300,000); active = well fitted inhibition curve with a large enough effect; inconclusive = small, poorly fitted or top-dose-only effect, or effect the other way; inactive = flat fitted curve, though single readings scatter; tested in HEK293 cells; about a fifth of its hits are not listed in these tables; also: % is scaled to controls: 0 for no effect and ±100 for the full control effect; luciferase read-out
# LASV entry inh: inhibitors of Lassa virus binding or cell entry | Lassa virus pseudotype entry inhibition, cell reporter; control for the full effect not named in the record | Potency, µM (doses to about 37.9 µM), for inactives: top-dose activity change, negative = inhibition, most hits filed as inhibitors | actives 1.2% (n = 300,000) | AID 540256; active means well fitted inhibition curve with a large enough effect; inconclusive means small, poorly fitted or top-dose-only effect, or effect the other way; inactive means flat fitted curve, though single readings scatter; tested in HEK293 cells; also: % is scaled to controls: 0 for no effect and ±100 for the full control effect; nearly all actives have a fitted effect of over 50% in size; luciferase read-out
# StopGo reporter: FMDV 2A StopGo reporter, luciferase signal; human cells with a luciferase reporter of 2A StopGo recoding; control for the full effect not named in the record; Potency, µM (series often up to 57.9 µM), without a hit: top-dose signal change, negative = less light; actives 1.2% (n = 410,000); AID 1159524; active = well fitted falling curve with a large enough effect; inconclusive = small, poorly fitted or top-dose-only effect; inactive = no such curve, though single readings can be large or run the other way; tested in HEK293T cells; also: % is scaled to controls: 0 for no effect and ±100 for the full control effect; nearly all actives have a fitted effect of over 45% in size; luciferase light after 4 h
# Cruzain Triton: cruzain (T. cruzi) inhibition with detergent | actives 0.43% (n = 200,000) | P25779 | Potency, µM, without a hit: max response, negative = inhibition, actives largely listed as inhibitors | purified cruzain, Z-FR-AMC fluorescence, 0.01% Triton; active = well fitted curve in the direction sought with a large enough effect; inconclusive = small, poorly fitted or top-dose-only effect, or another doubt; inactive = no such curve, though single readings can be large; an effect the other way counts as inactive or inconclusive;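 also: plate controls were neutral wells for no effect and buffer without enzyme for full effect; nearly all actives have a fitted effect of over 40% in size; top concentration of the series not given in the record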
#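 15 min RT preincubation of 1.5 nM cruzain with compound, then 2 uM Z-FR-AMC added; kinetic AMC fluorescence, 60 s delta. Triton X-100 0.01%, pH 5.5.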
# NS1 function inh: influenza NS1 inhibition | S. cerevisiae slowed by influenza A NS1, growth recovery by OD600 | Potency, µM (titrated, usually from 46.1 µM), inactives show at the highest dose activity, positive = more growth | actives 0.4% (n = 270,000) | AID 2326; also: actives are rising curves; nearly all actives have a fitted effect of over 50% in size
#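 A cell-based growth assay was used: compounds that relieve NS1-induced slow growth of budding yeast raise OD600. Assay medium was yeast nitrogen base with ammonium sulphate and -URA supplement, pH 6.0, with 2% galactose.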
# RE007 growth inh: less growth of the S. pombe RE007 Vpr strain | Potency, µM (titrated, usually from 92.2 µM), inactives show at the highest dose activity change, negative = less growth | actives 0.21% (n = 360,000) | S. pombe RE007 Vpr strain, BacTiter-Glo ATP luminescence, 24 h; control for the full effect not named in the record; active = well fitted falling curve with a large enough effect; inconclusive = small, poorly fitted or top-dose-only effect; inactive = no such curve, though single readings can be large or run the other way;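 also: % is scaled to controls: 0 for no effect and ±100 for the full control effect; nearly all actives have a fitted effect of over 50% in size; the assay follows cell death caused by Vpr and the record does not say whether a fall means rescue or toxicity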
#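 Fission yeast RE007 carrying one integrated HIV-1 vpr copy, seeded at OD 0.01 in PMG+AL medium with 23 nL pinned compound. Grown 24 h at 30 degrees; viability read by BacTiter-Glo luminescence after 5 min.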
# The depositor's hits bear a star; ? = inconclusive; / = no result given; & = joins results of further samples; [ ] = dose if it differs, or a comment. Unless noted, calls follow the shape of the dose curve; as a rule, active means well fitted rising curve with a large enough effect; inconclusive means small, poorly fitted or top-dose-only effect; inactive means no such curve, though single readings can be large or run the other way. Potency is read from the fitted curve at half-maximal effect.
SMILES,SARS PLpro yeast,Cruzain inh noDet,MARV entry inh,LASV entry inh,StopGo reporter,Cruzain Triton,NS1 function inh,RE007 growth inh
O=C(NCc1ccncc1)C(=O)N/N=C/c1ccccc1OCc1ccccc1,-0.8%,/,0.3%[46.1 µM],-5.4%,29.5%,/,/,-11.1%
Cc1ccc(CNC(=O)CCSCc2ccccc2F)cc1,-1.7%,6.6%,7.7%[46.1 µM],?,-12.4%&-14.1%,-2.2%,-47.8%,-4.0%
COc1cc(OC)cc(C(=O)N[C@H](C(=O)Nc2nc3c(s2)CCCC3)C(C)C)c1,2.6%,2.6%,-24.9%,-0.5%,15.7%,-3.2%,9.2%,-7.7%
CCOC(=O)COc1cccc2c(=O)n(CC(=O)N3CCCCC3)ccc12,-0.8%,/,/,/,-8.0%,/,0.8%,-1.8%
O=C(CCNS(=O)(=O)c1ccc2c(c1)CCCC(=O)N2)NCc1ccc(Cl)cc1,/,-1.8%,/,4.6%[46.1 µM],-22.3%,-1.5%,/,/
Cc1ccc([N+](=O)[O-])cc1S(=O)(=O)N(C)C,/,3.8%&-0.4%&-1.1%,?,36.1%,/,4.4%&-4.2%&0.6%,-3.2%&-7.6%,/
CCSc1ccc2nnc(-c3ccc(F)cc3)n2n1,-8.7%,3.2%,11.5%,-0.4%,-13.8%,1.6%,-55.0%,14.7%
O=C(COc1ccc(F)cc1)Nc1nnc(C2CCCCC2)s1,-4.1%,/,13.5%,19.2%,9.6%,/,5.4%,-6.5%
Nc1c(NCc2ccccc2)c2ccccc2oc1=O,-22.2%,-27.2%,-6.1%,-0.8%,-3.0%,-22.1%,-11.1%,5.0%
O=C(Nc1ccc(F)c(Cl)c1)c1nsc(Cl)c1Cl,0.2%,/,/,/,58.7%[activator],/,-4.4%,?
Cc1cccc(NS(=O)(=O)c2ccc(C)c(C(=O)NCc3cccnc3)c2)c1,-3.8%,/,?,1.7%,19.1%,/,/,-2.1%
CC(=O)c1cccc(NC(=O)CN2C(=O)CC(c3ccc(C)cc3C)=Nc3ccccc32)c1,/,14.1%,/,?,-1.2%,-4.5%,/,/
Cc1ccc(C2CC(c3cccs3)=NN2C(=O)c2ccco2)o1 (configuration not stated),-3.6%,/,?,4.6%[46.1 µM],15.4%,/,-1.5%,-17.0%
Cc1c(C(=O)Nc2ccc(F)cc2F)sc2nc3n(c(=O)c12)N=C(c1ccccc1)CS3,/,-9.7%,/,16.9%[46.1 µM],17.6%,3.4%,/,/
O=C(Nc1ccc(Cl)cc1)C1CCC(=O)N1Cc1ccccc1Cl (configuration not stated),6.6%,8.9%,-11.5%,-22.4%,0.0%,6.4%,-0.8%,-2.1%
O=C(Cc1cccs1)NCCn1ccc2ccccc21,2.8%,-6.2%,/,/,10.3%,5.2%,-18.3%,-4.8%
Cc1cccc(NC(=O)CSc2nccn2Cc2ccco2)c1C,1.3%,/,9.9%[46.1 µM],10.8%[46.1 µM],38.5%[activator],/,1.2%,8.7%
CSc1ccccc1OCc1cc(C(=O)NC(C)Cc2cccc(C)n2)no1 (configuration not stated),1.4%,/,?,12.8%,-16.9%,/,-29.8%,2.6%
N#Cc1c(NC(=O)CSc2nnc(-c3ccccc3)o2)sc2c1CCCC2,-6.9%,-25.6%,?,-19.2%,21.3%,6.0%,4.4%,-16.7%
O=S(=O)(c1cc(Br)ccc1Br)N1CCCCCC1,-0.6%,/,18.1%[46.1 µM],/,-9.1%,/,-2.0%,1.8%
CC(/C=C/c1ccccc1)=N/NC(=O)c1cccc(Br)c1,-2.9%,/,?,?,-6.4%,/,-1.9%,-10.8%
Cc1ccc(CNC(=O)c2cc3ccc4cccnc4c3[nH]2)cc1,/,-10.9%,/,-3.1%[46.1 µM],9.4%,-9.4%,/,/
COc1ccccc1NS(=O)(=O)c1ccc(C)c(C(=O)NCCCN2CCCC2=O)c1,-9.0%,/,0.6%[46.1 µM],6.0%,-4.0%,/,/,-8.7%
O=C(Nc1ccc(-n2cnnn2)cc1)C1CCCN1C(=O)NC1CCCCC1 (configuration not stated),5.7%,-3.6%,?,22.0%,-11.5%,1.6%,1.3%,0.4%
CCOC(=O)c1nc(C)[nH]c1C(=O)OCC,-1.4%,-5.2%,?,-2.9%,10.1%,-0.2%,-1.8%,-9.6%
O=C(NCc1cccs1)C1CCN(S(=O)(=O)c2cccc3nsnc23)CC1,6.4%,-13.4%,25.7%,4.1%,-2.7%,2.7%,-0.7%,-15.1%
COCCn1c(SCC(=O)c2ccc3c(c2)OCCO3)nnc1-c1ccoc1C,6.4%,-6.9%,-1.7%,6.2%,-12.7%,-5.9%,-7.1%,19.3%
Cn1c(=O)c2c(ncn2CC(=O)Nc2ccc(Cl)cc2Cl)n(C)c1=O,-3.3%,-10.2%,-3.0%,0.0%,-6.9%,-5.6%,-6.6%,-10.1%
COc1nc2c(C)cccc2cc1-c1noc(-c2ccncc2)n1,1.3%,-4.1%,-2.8%,/,/,3.1%,0.4%,/
CC1(C)OC(=O)C(=C2CCCN2)C(=O)O1,/,3.4%,7.2%,0.8%,-23.3%,-0.5%,8.2%,19.0%
Cc1ccc(-c2cc(C(=O)NCc3cnn(C)c3C)c3cc(Br)ccc3n2)cc1,?,?,18.5%&-21.7%[46.1 µM],13.4%[46.1 µM],2.5%&14.5%,-5.5%&1.7%,8.4%,-2.8%
COCCOC(=O)C1=C(C)NC2=C(C(=O)CC(C)(C)C2)C1c1ccc2c(c1)OCO2 (configuration not stated),6.0%,6.7%,-20.1%,-17.3%,/,-6.1%,-22.9%,-0.8%
CCOC(=O)c1cc2c(=O)[nH]ccc2nc1C,-7.7%,7.5%,3.7%,-7.7%,/,-8.2%,13.3%,2.9%
Cc1ccc2nc(Nc3ncc4c(n3)CC(C)(C)CC4=O)nc(C)c2c1,1.2%,/,?,0.6%,-10.9%,/,6.0%,0.2%
CCOC(=O)CSc1nc2c(c(=O)n(C)c(=O)n2C)n1CCCc1ccccc1,-0.5%,11.8%,9.4%&9.4%,5.4%,-28.7%,-2.1%,-6.8%,43.2%
COc1ccc(C(=O)Nc2ccc(S(=O)(=O)NC(C)=O)cc2)cc1,1.5%,-6.9%,9.4%,6.7%,19.6%,3.0%,6.8%,-3.0%
COc1cccc(N2CC(NS(=O)(=O)c3ccc4ccccc4c3)CC2=O)c1 (configuration not stated),-4.8%,/,0.4%[46.1 µM],-16.4%,-17.4%,/,/,-10.7%
CCCCC/C=N/NC(=O)c1[nH]c2ccc([N+](=O)[O-])cc2c1C,-2.7%,/,?,?,-19.4%,/,3.5%,-13.7%
CCCCCNC(=O)Cc1ccc(OC)cc1,-0.4%,-9.7%,?,7.9%,3.1%,-0.5%,1.1%,14.1%
Cc1ccc(S(=O)(=O)N(C)C)cc1NC(=O)COC(=O)CCC(=O)c1ccc(F)cc1,12.1%,-1.1%,0.6%[46.1 µM],9.7%[46.1 µM],16.2%,-3.3%,-7.1%,-5.8%
Cc1cccc(OCC(O)Cn2c(NCCCOC(C)C)nc3c2c(=O)[nH]c(=O)n3C)c1 (configuration not stated),-5.3%,16.8%,3.4%[46.1 µM],-20.1%,-14.2%,1.1%,2.1%,-17.5%
COc1cc(/C=C2\CCOC2=O)cc(OC)c1OC,1.8%,/,0.6%[46.1 µM],-0.1%,-10.5%,/,3.1%,0.2%
CCOc1ccccc1NC(=O)C(=O)NCCC1=CCCCC1,-0.4%,/,-16.8%[46.1 µM],2.5%,8.0%,/,-0.5%,5.4%
COc1ccc(-c2nnn(Cc3ccccc3)n2)cc1OC,5.2%,/,-17.7%[46.1 µM],?,2.3%,/,-34.0%,-14.6%
Cc1ccc(/C=N/NC(=O)c2nnn(-c3nonc3N)c2CN(C)C)s1,3.6%,/,/,/,6.5%,/,-1.8%,-6.1%
COc1ccc(OC2C(=O)N(Cc3ccc4c(c3)OCO4)C2c2sccc2C)cc1 (configuration not stated),-4.7%,-9.7%,?,-12.0%,?,-6.8%,3.7%,-9.9%
COc1cc(CN2CCN(c3cccc(Cl)c3)CC2)cc(OC)c1OC,2.3%,-11.8%,-18.6%,-29.4%,-23.6%,0.3%,-0.8%,-7.2%
Nc1c(C(=O)OCC(=O)Nc2cccc([N+](=O)[O-])c2)[nH]c(=O)[nH]c1=O,-1.5%,/,-1.5%,10.9%,-1.8%,/,/,-15.8%
Cc1nn2c3ccccc3n(CC(=O)c3cccs3)c2nc1=O,-0.8%,/,-19.0%[14.2 µM],-5.6%,-16.8%,/,0.1%,3.1%
CCN(CC)c1ccc(CN2CC=C(c3ccc(F)cc3)CC2)cc1,-22.8%,-8.0%,?,-13.7%,0.0%,3.0%,-81.1%,10.5%
CC(C)NC(=S)Nc1ccc(S(=O)(=O)Nc2ncccn2)cc1,10.1%,3.9%,?,6.9%,-16.4%,-1.8%,3.5%,-4.4%
COc1cnn(-c2ccc(C)cc2)c(=O)c1SCc1ccccc1,10.0%,-9.1%,24.6%,?,2.6%,-5.1%,-25.2%,0.6%
COc1ccc(-c2ccnc3[nH]n(-c4ccccc4)c(=O)c23)cc1,-1.3%,-7.8%,3.5%,11.2%,12.7%&-0.9%,0.1%,14.4%,-3.9%
c1ccc(Cn2cc(CN3CCCCO3)c(-c3ccc4c(c3)OCO4)n2)cc1,-3.6%,/,/,/,-2.4%,/,14.7%,-3.2%
COC(=O)CSc1ncc2c(n1)-c1ccccc1N(Cc1cccc(F)c1)S2(=O)=O,/,-9.5%,/,?,11.9%,-0.6%,/,/
CC(=O)NS(=O)(=O)c1ccc(NC(=O)CC23CC4CC(CC(Br)(C4)C2)C3)cc1,-3.7%,/,-6.1%[46.1 µM],/,7.7%,/,2.1%,-2.0%
Cc1ccc(-c2nnc(NCc3nc4ccccc4[nH]3)c3ccccc23)cc1S(=O)(=O)N(C)C,0.8%,-23.8%,?,17.8µM*,?,-15.1%,5.62µM*,-9.3%
